Bioassay records (PubChem)
Yeast UUG start – modulators of yeast start codon fidelity, primary screen, whole organism, S. cerevisiae, single point, plate reader | activity score, % at 18.7 µM | S. cerevisiae UUG-firefly luciferase reporter, luminescence/redox ratio | actives 0.13% (n = 350,000);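 active means replicate mean at a twofold rise or more, about +100% in these data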;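 further: firefly luciferase made from a UUG start codon reports start codon fidelity; reporter light over untreated wells divided by growth signal over untreated wells; some hits fall short of that in this replicate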
CSC inhib – cancer stem cell viability inhibitors, primary screen, luminescence; cancer stem cell-like cells viability; inhibition, % at 7.5 µM; actives 1.1% (n = 300,000); AID 2717, 2010;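 active means mean at 75% or more and at least half the replicates too; inconclusive means mean and replicates disagree; tested in HMLE shEcad cells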;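 further: 0% = median of negative and 100% = median of positive control wells; the first replicate is given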
eIF4H FP inh – human eIF4H binding inhibitors, primary screen, translation initiation inhibitor project, biochemical, uHTS, fluorescence polarization; Eukaryotic translation initiation factor 4H (Homo sapiens), Q15056; eIF4H fluorescence polarization binding assay; inhibition, % at 35 µM; actives 0.94% (n = 290,000); AID 2012, 2009;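 active means 50% or more with normal probe brightness, or confirmed in later tests; inconclusive means above 50% with abnormal brightness, or retests that disagree; inactive means below 50% or failed in later tests; about a fifth of its hits are not listed in these tables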;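 further: calls also rest on retests at 20 µM and on dose response follow-up; 0% = protein and probe with vehicle and 100% = probe without protein; strong numbers were not always called active; many hits fall short of the cut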
Rce1 inhib – yeast Rce1p protease inhibitors, primary screen, biochemical, fluorescence, cell-free homogeneous. yeast membranes, quenched prenylated peptide cleavage fluorescence. actives 0.27% (n = 290,000). calls only. CAAX prenyl protease 2 (Saccharomyces cerevisiae (strain ATCC 204508 / S288c)), Q03530;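 active means fall in fluorescence gain of 50% or more versus controls, with final raw signal at or below 3038400; inconclusive means same 50% fall but final raw signal above 3038400; inactive means fall in fluorescence gain under 50%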;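 further: plate controls were neutral control wells for no effect and wells lacking membranes for full effect; tested at 10 µM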
MT1-MMP act inh – blockers of MT1-MMP proenzyme processing, primary screen, HT1080 RFP-PRO-GFP cells, GFP/RFP fluorescence; actives 0.061% (n = 360,000); AID 651647, 2012; GFP/RFP ratio fluorescence, overnight; percent of plate control window, DMSO zero; Matrix metalloproteinase-14 (Homo sapiens), P50281; GFP/RFP ratio change, % at 20 µM;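 active means GFP/RFP ratio change of at least 30% with cell ATP level not reduced by more than half and red fluorescence within 50% of control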; further: strong numbers were not always called active
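Read-out: GFP/RFP fluorescence ratio; Test system: RFP-PRO-GFP reporter HT1080 cells; Compound dosing: single-point 20 µM compound, 1% DMSO; Times: overnight compound exposure at 37 °C.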
Env fusion inh – inhibitors of HIV-1 Env-driven cell-cell fusion, primary screen, HeLa-JRFL effector, CEM21 target cells, luciferase. actives 1.1% (n = 360,000). inhibition, % at 12.3 µM. AID 651610, 2012;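 active means mean replicate inhibition score of at least 50 and every replicate individually at or above 50; inconclusive means only one of the two criteria met; inactive means mean below 50 and not all replicates reaching 50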;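 further: 0% = plate neutral controls and 100% = maraviroc near 300 nM; one replicate is shown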
PABP FP inh – PABP poly(A) RNA binding inhibitors, primary screen, biochemical, fluorescence polarization, uHTS; inhibition, % at 35 µM; actives 1% (n = 290,000); AID 2014, 2009;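 active means 50% or more with normal probe brightness, or confirmed in later tests; inconclusive means above 50% with abnormal brightness, or retests that disagree; inactive means below 50% or failed in later tests; about a fifth of its hits are not listed in these tables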;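 further: calls also rest on retests at 20 µM and on dose response follow-up; controls were probe without protein and protein plus probe with vehicle; some compounds called inactive have numbers as strong as hits; many hits fall short of the cut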
Target sequence (P11940 whole entry, looked up): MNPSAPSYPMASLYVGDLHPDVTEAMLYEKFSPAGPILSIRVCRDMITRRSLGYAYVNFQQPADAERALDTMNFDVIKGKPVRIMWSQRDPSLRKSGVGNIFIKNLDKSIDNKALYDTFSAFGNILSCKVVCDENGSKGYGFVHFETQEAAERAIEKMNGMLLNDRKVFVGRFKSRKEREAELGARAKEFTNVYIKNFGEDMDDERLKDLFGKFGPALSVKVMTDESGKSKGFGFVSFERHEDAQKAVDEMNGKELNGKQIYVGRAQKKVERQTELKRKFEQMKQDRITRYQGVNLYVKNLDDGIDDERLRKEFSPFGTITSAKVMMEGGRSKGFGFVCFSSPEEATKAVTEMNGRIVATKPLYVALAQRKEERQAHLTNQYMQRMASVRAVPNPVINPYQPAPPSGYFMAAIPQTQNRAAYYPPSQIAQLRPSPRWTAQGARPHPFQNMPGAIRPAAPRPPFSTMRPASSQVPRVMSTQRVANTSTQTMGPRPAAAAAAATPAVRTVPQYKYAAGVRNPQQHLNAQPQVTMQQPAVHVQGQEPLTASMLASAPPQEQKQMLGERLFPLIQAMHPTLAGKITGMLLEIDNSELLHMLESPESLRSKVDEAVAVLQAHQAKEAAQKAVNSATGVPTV
eIF4H FP inh retest – further read-out of eIF4H FP inh, marked with its call; inhibition, %; compound at 20 µM; confirmation average;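 mean of two retest wells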
PABP FP inh retest – recorded beside PABP FP inh, whose call it bears; inhibition, %; compound at 20 µM; confirmation repeats;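 mean of two retest wells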
MT1-MMP act inh RFP – recorded beside MT1-MMP act inh, whose call it bears; RFP signal change, %; measured here: RFP expression control read;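 0 = vehicle wells; hits needed this value within 50% of zero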
Numbers without * were called inactive; i = inactive; ? = inconclusive; . = no result given.

SMILES	Yeast UUG start	CSC inhib	eIF4H FP inh	Rce1 inhib	MT1-MMP act inh	MT1-MMP act inh RFP	Env fusion inh	PABP FP inh	others
CCN(CC)CC(=O)Nc1ccc(Oc2ccc(NC(=O)CN(CC)CC)cc2)cc1	.	-3	4	i	4	5	11	13
COc1ccc(CNC(=O)CN2C(=O)c3ccccc3C2=O)cc1	-4	11	0	i	-3	1	-5	-8
O=C(NCC(c1ccco1)N1CCN(c2ccccc2F)CC1)C1CCCCC1 (stereo unspecified)	-9	-8	.	i	0	0	.	.
O=c1[nH]c(/C=C/c2ccccc2[N+](=O)[O-])nc2ccccc12	-30	-9	96	i	1	5	-34	-12	eIF4H FP inh retest=8;PABP FP inh retest=30
O=C(Cn1cc(C(=O)c2ccco2)c2ccccc21)NC1CCCC1	-14	8	0	i	1	-1	-28	-12
CCC(C)N(C(=O)CSc1nnc(-c2cccs2)n1C1CC1)C1CCS(=O)(=O)C1 (stereo unspecified)	2	.	.	.	3	1	7	.
CCOc1ccc(N2C(=O)CS/C2=N/NC(=O)COc2ccc3ccccc3c2)cc1	-2	-5	3	i	2	-2	.	-7
COC(=O)C1=C(C)NC(=O)C1(NS(=O)(=O)c1ccc(C)cc1)C(F)(F)F (stereo unspecified)	-16	-6	59	i	2	3	.	8.5*	eIF4H FP inh retest=16;PABP FP inh retest=66*
CCCCCOc1ccc(C(O)C(CN2CCOCC2)c2ccccc2)cc1 (stereo unspecified)	-4	10	-4	i	-6	-11	9	-4
Nc1nc(N)c2[nH]c(-c3ccccc3)nc2n1	-3	.	5	i	6	-2	5	-5
COc1ccc(NC(=O)Nc2c(C)n(-c3ccccc3)c(=O)n2C)cc1OC	5	.	-10	i	3	5	.	-5
CCC(C)C(NC(C)=O)C(=O)NC(=O)NC(c1ccccc1)c1ccccc1 (stereo unspecified)	3	-2	-6	i	-1	-3	.	-1
CN(Cc1ccccc1)C(=O)CCc1ccccc1	.	2	7	i	0	3	-14	6
Cn1cnnc1SCC(=O)c1ccc2c(c1)NC(=O)CO2	-7	-15	.	.	0	3	.	.
CC(C)(C)OC(=O)NN1CC(=O)N2Cc3ccccc3C[C@@H]2C1=O	-5	-3	0	i	1	2	-34	5
COc1ccccc1N1CCc2c(C)nc3c(OC)cccc3c21	-16	21	-5	i	2	1	.	-9
Cc1ccc(CC(=O)O/N=C(\N)c2cccc([N+](=O)[O-])c2)cc1	.	-6	-10	i	3	5	-5	-6
O=C(O)c1ccc(S(=O)(=O)NCC2CCCO2)cc1 (stereo unspecified)	5	-4	4	i	0	0	5	4
CC(Sc1nc2ccccc2c(=O)n1C)C(=O)N(C)C1CCCCC1 (stereo unspecified)	-5	-15	.	i	-2	-27	62*	.
NC(=S)NN=C1c2cc(OCCN3CCOCC3)ccc2-c2ccc(OCCN3CCOCC3)cc21	.	38	2	i	15	-18	17	17
CC(NC(=O)C(=O)NN=C1CCCCCCC1)c1ccccc1 (stereo unspecified)	16	-6	6	i	-1	1	.	2
CCOc1ccc(-c2nnc(NC(=O)c3ccc(OCC(C)C)c(OC)c3)o2)cc1	.	103*	12	i	-1	2	.	-4
Cc1nc(SCc2ccc(Cl)cc2)ncc1C(=O)O	.	-3	8	i	0	5	-7	32
O=C(CNC(=O)c1cccc(F)c1)OCc1cc(=O)n2cc(Br)ccc2n1	4	-7	-3	i	3	11	-14	5
Clc1ccc(-n2nnnc2CN2CCOCC2)cc1Cl	5	2	-9	i	1	6	7	0
CCn1c(=O)c(C(=O)Nc2ccccn2)c(O)c2ccccc21	.	-10	-5	i	0	-2	13	0
CCn1nnnc1SCC(=O)N1N=C(c2cccs2)CC1c1cccs1 (stereo unspecified)	-1	.	.	.	0	1	-24	.
O=C(OCC(=O)N1CCC(Cc2ccccc2)CC1)c1ccc[nH]c1=O	12	-6	-8	i	2	3	.	-4
CC(=O)c1c(C)[nH]c(C(=O)OCc2cc(=O)n3cc(Br)ccc3n2)c1C	4	12	.	.	3	1	2	.
COCCNC(=O)Cn1c(=O)n(Cc2ccco2)c(=O)c2ccccc21	-9	7	-5	i	-5	0	-14	-5
Cc1ccc(NC(=O)C2CC(=O)NC(N3CCCCC3)=N2)cc1Cl (stereo unspecified)	-17	-1	9	i	1	8	-18	3
CCN(CC(=O)NCc1cccs1)C(=O)CCOc1ccccc1C	-15	-5	-3	i	2	4	6	2
CC(C)C(NS(=O)(=O)c1cccs1)C(=O)NCc1ccccc1 (stereo unspecified)	-5	-10	0	i	-6	-4	3	2
CCOc1ccc(/C=C/C(=O)Oc2ccccc2)cc1	0	-7	1	i	0	-1	9	7
O=C(Cc1ccc(Cl)cc1)NN1C(=O)c2ccccc2C1=O	.	-4	-11	i	2	0	9	5
Cc1csc(NC(=O)C2CCCN(S(=O)(=O)c3cccnc3)C2)n1 (stereo unspecified)	-17	2	-16	i	-1	-2	-14	1
CSCCC(NS(=O)(=O)c1ccc(Cl)cc1)C(=O)OCc1c(Cl)cccc1Cl (stereo unspecified)	.	-1	4	i	-6	-10	14	1
CCCCN1C(=O)c2ccc(C(=O)Nc3cccc(C)c3C)cc2C1=O	-19	-10	-5	i	1	0	.	1
Cc1ccc2[nH]c3c(=O)n(CC(=O)NCCc4ccc(Cl)cc4)ncc3c2c1	-15	-2	-2	i	5	5	-16	-5
CCN(CC)S(=O)(=O)c1ccc(N2CCOCC2)c(NC(=O)c2ccc(NC(C)=O)cc2)c1	.	1	-4	i	1	-3	5	2
O=c1cc(Cn2nnc(-c3ccc(Cl)cc3)n2)nc2sccn12	-9	-6	8	i	2	-3	-78	1
CCn1c(COc2ccc(OC)cc2)nnc1SCC(=O)Nc1cc(OC)ccc1OC	-7	-14	2	i	-3	-6	-11	-7
CCNC(=S)Nc1cc(Cl)ccc1Oc1ccccc1	.	4	-3	i	3	-3	16	4
Cc1ccc2nc(NC(=O)C3CCCN(S(=O)(=O)c4cccc5nsnc45)C3)sc2c1 (stereo unspecified)	-21	.	-1	i	-18	-18	.	-12
Cc1ccc(NC(=O)COC(=O)Cn2cnc3ccccc32)c(C)c1	-12	-9	.	.	4	0	.	.
COc1ccc2[nH]c(O)c(N=NC(=O)Cc3cccs3)c2c1	.	11	.	i	6	3	5	.
CCN1CCN(C(c2nnnn2Cc2ccc3c(c2)OCO3)C(C)C)CC1 (stereo unspecified)	-17	-13	-4	i	1	6	-47	-1
COc1ccc(Nc2nc(NCC3CCCO3)nc(N)c2[N+](=O)[O-])cc1 (stereo unspecified)	.	-1	-8	i	-6	2	3	8
Cc1ccc(S(=O)(=O)NC2CC2)cc1	-8	0	-1	i	0	5	10	-6
CCN(CC)c1ncnc2c1ncn2[C@H]1CN(CCOC)C[C@@H](CO)O1	-8	.	.	.	0	4	23	.
Following part.
SMILES	Yeast UUG start	CSC inhib	eIF4H FP inh	Rce1 inhib	MT1-MMP act inh	MT1-MMP act inh RFP	Env fusion inh	PABP FP inh	others
O=C(Nc1ccc2c(c1)CN(Cc1ccccc1O)CC2)C1CCCO1 (stereo unspecified)	-6	-14	.	i	-4	1	-10	.
CN(C1CCCCC1)S(=O)(=O)c1ccc(NC(=O)c2ccco2)cc1	15	14	-7	i	0	-2	.	-14
CCCc1nnc(NC(=O)CN2C(=O)c3ccccc3C2=O)s1	-3	8	1	i	1	0	.	8
O=C(NCCCCNC(=O)C(F)(F)F)C(F)(F)F	.	-5	27	i	-3	-4	-3	0
O=C(O)C1=CCCc2ccc(F)cc21	-21	.	.	.	0	1	-1	.
Fc1ccc(-c2csc(N3CCOCC3)n2)cc1	.	-2	9	i	8	2	-41	0
Cc1ccc(S(=O)(=O)NC2CC(C)(C)NC(C)(C)C2)cc1	-6	-16	5	i	-1	1	12	1
Cc1cc(N/N=C/c2ccncc2)c([N+](=O)[O-])cc1[N+](=O)[O-]	6	-9	-6	i	9	2	-9	3
CCc1ccc(NC(=S)NCc2ccccc2)cc1	.	-11	-1	i	6	8	3	16
O=C(Cn1nnc(-c2ccc(CN3CCOCC3)cc2)n1)Nc1nc(-c2ccccc2)cs1	-16	.	-17	i	4	-11	-16	0
CCN(CC)c1ccc(C(=O)OCC(=O)Nc2cc(C)on2)cc1	-4	-2	.	.	2	2	.	.
CC(=O)c1csc(COc2ccc(Cl)cc2)n1	.	-11	-8	i	0	-7	-215	1
CC1CCN(C(=O)c2ccccc2NC(=O)Cc2ccccc2)CC1	-8	-5	0	i	-2	2	2	0
O=[N+]([O-])c1ccc(S(=O)(=O)Nc2nnc(C(F)(F)F)s2)cc1	-14	-7	2	i	0	3	-17	10
C#CCOC(=O)CCC(=O)NCCc1ccccc1	4	12	3	i	6	8	.	5
O=C1CC(NS(=O)(=O)c2cccs2)CN1c1cccc(F)c1 (stereo unspecified)	.	17	.	i	-2	-1	-1	.
CCn1c(NC(C)=O)c(-c2ccccc2Cl)c(=O)c2ccccc21	-9	-5	-10	i	-7	-1	-10	-4
Cn1c(/C(C#N)=C(\O)CN2CCN(Cc3ccccc3)CC2)nc2ccccc21	-9	-12	0	i	2	5	.	-6
COc1cccc(OCCNc2ccc([N+](=O)[O-])cn2)c1	-6	-1	.	.	3	-6	.	.
O=c1c2ccccc2ncn1CCOc1ccccc1[N+](=O)[O-]	-13	-3	3	i	3	5	-19	8
ON1C(c2ccccc2)CC2(O)c3nonc3CCC12 (stereo unspecified)	-24	-15	-10	i	2	7	-79	-6
CCc1ccc(OCCOCC(O)CNC(C)CC)cc1 (stereo unspecified)	.	3	-4	i	5	4	5	-5
Cc1cccc(C)c1NC(=O)CSc1nc(COc2ccccc2)nc2ccccc12	-12	.	-17	.	-7	-2	.	-6
CC(=O)C1=C(O)C(=O)N(CCNCCO)C1c1ccccc1 (stereo unspecified)	0	4	-2	i	3	8	-141	4
CC(=O)c1ccc(OC(=O)CCc2ccccc2)cc1	-9	5	-4	i	2	5	1	-8
Cn1ccnc1Sc1ccc(C(N)=O)cc1[N+](=O)[O-]	.	7	4	i	-6	1	-2	1
COc1ccc(-c2noc(N3CCCC(C(=O)Nc4ccccc4F)C3)n2)cc1 (stereo unspecified)	-9	-3	-4	i	-2	-3	-5	-1
NC(=O)c1ccc(SCC(=O)OCC(=O)N2CCCCC2)c([N+](=O)[O-])c1	.	-8	.	i	1	1	-12	.
COc1ccc(Oc2c(Cl)cnn(-c3ccc(Cl)c(Cl)c3)c2=O)cc1	.	?	5	i	4	-13	.	-8

Structures listed so far that have bromine (two):
SMILES	Yeast UUG start	CSC inhib	eIF4H FP inh	Rce1 inhib	MT1-MMP act inh	MT1-MMP act inh RFP	Env fusion inh	PABP FP inh	others
O=C(CNC(=O)c1cccc(F)c1)OCc1cc(=O)n2cc(Br)ccc2n1	4	-7	-3	i	3	11	-14	5
CC(=O)c1c(C)[nH]c(C(=O)OCc2cc(=O)n3cc(Br)ccc3n2)c1C	4	12	.	.	3	1	2	.
